# Screening data deposited in PubChem BioAssay by PCMD.
# Biofilm kill mix – mixtures killing C. albicans biofilm. actives 0.02% (n = 120,000). inhibition, % at 7.6 µM. C. albicans biofilm persisters + clotrimazole, fluorescence viability; primary screen in compound mixtures of four per well;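 active = inhibition above 30.3% in the primary screen of four-compound pools, then above 30% when the compound was retested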;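 note: compounds exposed to preformed 24 h biofilms for 48 h; the number belongs to the whole pool; some results filed as inactive read as strong as hits; inactives centre near 12; 0% = biofilm with clotrimazole alone and 100% = kill control; retested singly at about 60 µM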
#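 Incubation: 24 h biofilm formation, then 48 h compound exposure, 37 °C | Material: C. albicans biofilms | Buffer or medium: RPMI/MOPS medium, pH 7.0 | Measured by: 2-h Alamar Blue fluorescence, 535/590 nm excitation/emission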
# * hit, by the source's call. These rows are one share of the data; rates above refer to the full screens.
smiles	Biofilm kill mix
Cc1ccsc1C1C(C#N)=C(N)OC2=C1C(=O)CCC2 (stereo not given)	22
COc1ccc(OC)c(C2C=C(C34CC5CC(CC(C5)C3)C4)NC(=S)N2)c1 (stereo not given)	2
CCCCNC(=O)CCCCCNS(=O)(=O)c1ccc(Br)cc1	7
CCCCSc1nc2ccccc2n1CC(=O)O	10
Nc1ccc2c(c1)sc1ccccc12	17
COc1ccc(-c2noc(CSc3nc(N)cc(=O)[nH]3)n2)cc1	20
O=C(NCCc1c[nH]c2ccccc12)/C(=C/c1cccnc1)NC(=O)c1ccccc1	9
C(=C\c1ccccc1)/CNCC1CCCO1 (stereo not given)	2
Cc1c(NC(=O)/C=C/c2ccc(S(=O)(=O)N3CCOCC3)cc2)c(=O)n(-c2ccccc2)n1C	14
CN(Cc1ccc(F)cc1)C(=O)CCc1nnc(-c2ccccc2)o1	3
O=C(NC1CCCC1)C(c1cccs1)N(C(=O)c1ccco1)c1ccc2c(c1)OCO2 (stereo not given)	19
CCc1ccc2c(c1)C(c1ccc([N+](=O)[O-])cc1)=NNC(c1ccccc1)=N2	10
COc1ccc(NC(=S)Nc2ccc(OC(F)F)cc2)cn1	16
N/C(Cc1ccc(Cl)cc1Cl)=N\OC(=O)Cc1ccc(Cl)cc1	17
CC(=O)/C(=C\N(C)C)Sc1ccc(Cl)cc1	-12

# Reprinted from the part before: two entries, then new ones.
smiles	Biofilm kill mix
N/C(Cc1ccc(Cl)cc1Cl)=N\OC(=O)Cc1ccc(Cl)cc1	17
CC(=O)/C(=C\N(C)C)Sc1ccc(Cl)cc1	-12
COc1ccc(C(=O)N2N=C(c3ccccc3)CC2(O)C(F)(F)F)cc1 (stereo not given)	26
c1ccc(C2=Nc3cccnc3C(c3ccccc3)=NN2)cc1	26
COCCNC(=O)C1CCN(S(=O)(=O)c2c(C)noc2/C=C/c2cccs2)CC1	21
O=c1ccc(OCCOc2ccccc2)nn1-c1ccccc1	20
CCn1cc(Br)c(C(=O)NC(=S)Nc2ccc(C(=O)OC)cc2)n1	19
COc1ccc(-c2c([C@H]3[C@H]4C=CC[C@@H](C)[C@@H]4C(=O)N3Cc3ccccc3)ccc3ccccc23)cc1OC	14
O=[N+]([O-])c1ccc(CSc2nnc(SCc3ccc(Cl)cc3)s2)cc1	17
O=C(Nc1ccc(N=Nc2ccccc2)c(NC(=O)C2CCCO2)c1)C1CCCO1 (stereo not given)	6
C/C(CS(=O)(=O)c1ccccc1)=N\O	11
Cc1ccc(C(C(=O)NC(C)(C)C)N(Cc2ccc3c(c2)OCO3)C(=O)c2ccc(CN3CCOCC3)o2)o1 (stereo not given)	18
CNC(=O)c1csc(-c2cccs2)n1	8
CNC(=S)NNC(=O)c1sc2cc(C(F)(F)F)cnc2c1-c1ccccn1	14
O=c1ccc(/C=C/c2ccccc2)nn1Cc1ccc(F)cc1	20
COc1ccc(Cl)cc1NC(=S)N(CCN1CCOCC1)C1CCN(C(C)=O)CC1	3
CC(C)NC(=O)C1CCN(C2CCN(C(=O)c3scc4c3CCCC4)CC2)CC1	11

# New compounds follow.
smiles	Biofilm kill mix
CCOc1ccc(C(=O)NC2CCN(CC(=O)NCc3cccs3)CC2)cc1	4
COc1ccc(-c2nc(NC(C)=O)sc2-c2ccc(OC)cc2)cc1	-21
Clc1ccc(N=NN2CCOCC2)cc1	1
O=C(O)CCC(=O)Nc1cccc(C(=O)c2ccccc2)c1	21
CCOC(=O)CNC(=O)N1CCCC(CNS(=O)(=O)Cc2ccccc2)C1 (stereo not given)	13
Cc1oc(-c2cccc3ccccc23)nc1CN1CCN(c2ncnc3ccccc23)CC1	1
Cc1ccc(CNC(=O)c2cc3c(s2)CN(Cc2ccccc2)C3)cc1	12
O=C(NC(=S)N1CCCc2ccccc21)c1ccco1	9
Cc1nonc1C1CCCN1Cc1cn[nH]c1-c1ccc2c(c1)OCO2 (stereo not given)	11
O=C(CSc1nnc2ccc(-c3ccccc3)nn12)NCC1CCCO1 (stereo not given)	10
COC(=O)c1cc(C(=O)CC(C)C)c[nH]1	13
O=C(COC(=O)c1ccc2c(=O)n3c(nc2c1)CCC3)NC1CCS(=O)(=O)C1 (stereo not given)	10
O=C(c1ccccc1)c1c[nH]cc1-c1ccccc1	10
CN=C1S/C(=C\c2ccc(N3CCOCC3)cc2C)C(=O)N1C	13
O=C(COC(=O)C1CC(O)CN1S(=O)(=O)c1ccc(Cl)cc1)c1ccccc1 (stereo not given)	14

# (next part)
smiles	Biofilm kill mix
Cc1ccc(N(CC(=O)NC(C)(C)C)C(=O)CNC(=O)c2cccs2)cc1	-3
O=C(CSc1nnc(COc2cccc3cccnc23)o1)N1CCN(C(=O)c2ccco2)CC1	8
COC(=O)/C=C/c1oc2ccccc2c1C	8
COc1ccc(C(=O)C2CCCN(C3Cc4ccccc4C3)C2)cc1OC (stereo not given)	8
O=c1c2c(-c3ccc(Cl)cc3)csc2ncn1/N=C/c1cccc([N+](=O)[O-])c1O	17
COC(=O)Nc1cc(C)n(-c2ccccc2)n1	17
N#C/C(=C\c1cn(CC(=O)N2CCCC2)c2ccccc12)C(=O)NCc1ccc2c(c1)OCO2	19
COC(=O)c1sc(-c2ccc(Cl)cc2)cc1NC(=O)c1ccccc1C(=O)O	14
Clc1ccc(-n2cc(-c3ccc(Br)cc3)[n+]3c2CCCCC3)cc1	30
O=C(N/N=C/c1cn(Cc2ccccc2)c2ccccc12)c1ccncc1	13
C=CCn1c(SCC(=O)O)nnc1-c1ccccc1	7
CC(C)N(Cc1ccccc1)C(=O)/C=C/c1ccccc1[N+](=O)[O-]	10
Cc1ccc(C)c(-c2[nH]ncc2CN2CCCC(CO)(Cc3ccccc3C)C2)c1 (stereo not given)	2
O=C(/C=C/c1cc([N+](=O)[O-])ccc1OC(F)F)Nc1cccc(OC(F)F)c1	6
O=C(NCCCn1ccnc1)c1cc(-c2ccc(Br)cc2)on1	8

# Further results:
smiles	Biofilm kill mix
O=C(NCc1ccco1)/C(=C\c1ccco1)NC(=O)c1cccs1	25
CCc1nnc(NC(=O)CSc2n[nH]c(-c3ccccc3O)n2)s1	-9
CCN(c1ccccc1)S(=O)(=O)c1ccc(C(=O)Nc2nnc(CSC)o2)cc1	13
COc1coc(/C=C/C(=O)O)cc1=O	5
CC(C)C(NC(=O)C12CC3CC(CC(C3)C1)C2)C(=O)N/N=C/C1=C(N2CCOCC2)C(=C\c2ccc([N+](=O)[O-])cc2)/CC1 (stereo not given)	18
COc1ccc(NC(=S)N(CCCN2CCC(C)CC2)Cc2cccs2)cc1	2
CS(=O)(=O)N1CCN(c2ccc(NC(=O)c3ccc([N+](=O)[O-])o3)cc2)CC1	6
Cc1ccc(S(=O)(=O)NN2C(=O)c3ccccc3NC2c2ccco2)cc1 (stereo not given)	8
CC(C)CC(NC(=O)OC(C)(C)C)c1cn([C@@H](CCC(=O)OC(C)(C)C)C(=O)N2CCN(C(=O)OC(C)(C)C)CC2)nn1 (stereo not given in full)	12
O=C(O)C1CCC(N2C(=O)C3C4CCC(C4)C3C2=O)CC1 (stereo not given)	16
O=C(NCc1ccccc1)C1=C[C@H](c2csc3ccccc23)C[C@H](OCc2ccc(CO)cc2)O1	19
CCOc1ccccc1Nc1nnc(SC(C)C(=O)Nc2nc(-c3ccccc3)cs2)s1 (stereo not given)	7
CCOc1ccc(NC(=O)C(NC(=O)C2CCC(C)CC2)C(C)C)cc1 (stereo not given)	21
O=c1cc(Cc2nnc(SCc3ccccc3)n2-c2ccc(Cl)cc2)[nH]c(=O)[nH]1	15
O=C(O)c1ccc(-c2nc(-c3ccccc3)c(-c3cccs3)[nH]2)cc1	15

# Following part
smiles	Biofilm kill mix
Cn1c(=NC(=O)C2=NNC(=O)CC2)sc2ccccc21	7
Cc1ccccc1CSCCNC(=O)Nc1ccccc1	10
COCCn1c(C)cc(C(=O)COC(=O)c2ccc([N+](=O)[O-])o2)c1C	9
O=C(CCn1c(=S)[nH]c2ccccc2c1=O)NCCc1ccccc1	21
Cn1c2ccccc2c2cc(/C=C(\NC(=O)c3ccccc3)C(=O)O)ccc21	10
c1coc(CNc2nc(-c3cccs3)cs2)c1	4
COc1ccc(CC(CC(=O)O)C(=O)NCc2ccccc2)cc1 (stereo not given)	-8
O=C(O)COc1ccc(Br)cc1CP(=O)(c1ccccc1)c1ccccc1	7
CC(=O)N(Cc1cccnc1)c1cccc(-c2nc3ccccc3s2)c1	13
CCn1cc(C(=O)O)c(=O)c2cc(F)c(N3CCN(S(=O)(=O)c4ccc(NC(C)=O)cc4)CC3)cc21	19
COc1ccc(C(=O)Nc2ccccc2C(=O)O)cc1NC(=O)C(c1ccccc1)c1ccccc1	27
CC(C)[C@H](NC(=O)c1ccc(Cl)c([N+](=O)[O-])c1)C(=O)NCc1ccc(Cl)cc1Cl	7
Cc1nn(-c2ccccc2)c(N2CCCC2)c1/C=N/NC(=O)c1cc(-c2cccs2)nc2ccccc12	14
CC1CN(C(=O)COC(=O)c2ccc(NC(=O)CC#N)cc2)CC(C)O1 (stereo not given)	17
CSc1ccc(NC(=O)/C=C/C(=O)O)cc1	16

# 2 entries from above, reformatted.
structure: CC(=O)N(Cc1cccnc1)c1cccc(-c2nc3ccccc3s2)c1
  Biofilm kill mix: 13

structure: CCn1cc(C(=O)O)c(=O)c2cc(F)c(N3CCN(S(=O)(=O)c4ccc(NC(C)=O)cc4)CC3)cc21
  Biofilm kill mix: 19

# More results:
smiles	Biofilm kill mix
NC(=O)[C@@H]1CCCN1Cc1nc(-c2cccs2)no1	3
CCC(=O)NC(=S)Nc1ccc(NC(=O)c2ccccc2[N+](=O)[O-])cc1	10
Cc1nn(-c2ccccc2)c(N)c1C(c1ccccc1)c1c(C)nn(-c2ccccc2)c1N	13
COCCNC(=S)N1CCCC(CO)C1 (stereo not given)	5
CCc1c(C(=O)NNC(=S)NCCc2ccccc2)csc1C	6
CC1(C)CC(=O)c2sc(NC(=O)Cc3cccs3)nc2C1	6
O=C(/C=C/c1ccc(OCc2ccccc2)c(OCc2ccccc2)c1)c1cccnc1	14
COc1ccc2[nH]c(C(=O)N(Cc3ccccn3)Cc3ccccn3)cc2c1	18
C=CCNC(=O)NC(=O)COn1nnc2ccc(S(=O)(=O)N(C)C)cc21	19
Cc1cccc(NC(=O)CCc2ccccc2)c1	6
Cc1ccc(OCC(=O)NC2CC(C)(C)NC(C)(C)C2)c(C)c1	4
CC(C)c1ccc(N=C(N)N=C(N)N)cc1	12
Cc1[nH]c2ccc(C(=O)N3CCCCC3)cc2c1C	13
O=C(NCCc1ccc(Cl)cc1)c1cccs1	21
CCC1CC(/C(C)=N/NC(N)=O)OC1=O (stereo not given)	12

# Four records picked at random from those above, as already listed:
smiles	Biofilm kill mix
C=CCNC(=O)NC(=O)COn1nnc2ccc(S(=O)(=O)N(C)C)cc21	19
CC1(C)CC(=O)c2sc(NC(=O)Cc3cccs3)nc2C1	6
COCCNC(=S)N1CCCC(CO)C1 (stereo not given)	5
COc1ccc2[nH]c(C(=O)N(Cc3ccccn3)Cc3ccccn3)cc2c1	18

# More structures follow.
smiles	Biofilm kill mix
CC(C)(C)C(=O)O/N=C(\N)c1c(Cl)cccc1Cl	14
COC(=O)c1ccc(C(=O)Nc2ccc(C(C)C)cc2N)cc1	7
COc1ccc(Nc2oc(COc3ccccc3OC)nc2C#N)cc1	19
CCOc1ccc(NC(=S)NCCCN2CCOCC2)cc1	15
COc1ccc(NC(=S)NNC(=O)COc2ccc(Cl)cc2Cl)cc1	13
O=C(Nc1ccc(Cl)cc1)N1CCCN(c2ccc(C(F)(F)F)cc2[N+](=O)[O-])CC1	14
CN(CC(=O)Nc1ccc(N2CCOCC2)cc1)C(=O)COc1ccccc1F	11
O=C(CCCn1c(=O)[nH]c2ccsc2c1=O)Nc1ccc(F)cc1	3
NC(=O)c1cccnc1Nc1ccccc1Cl	13
COCc1cc(C)nc(N/N=C/c2ccc(-c3ccc(Cl)cc3[N+](=O)[O-])o2)c1C#N	10
C/C(=N\NC(=O)c1c(Br)c(C)nn1C)c1cccc(NC(=O)c2ccccc2C)c1	9
CSc1n[nH]c(=S)n1N	14
NNC(=O)Cn1c(-c2ccccc2)cc(=O)n2ncnc12	18
CC1(C)[C@H]2CC[C@]1(C)[C@@H](OC(=O)C[N+]1(C)CCOCC1)C2	15
CC(C)CN(C(=O)COC(=O)c1ccccc1SCC(=O)NC1CCCCCC1)C1CCS(=O)(=O)C1 (stereo not given)	22

# Other records
smiles	Biofilm kill mix
CCCN1CNc2c(c(=O)[nH]c(=S)n2-c2ccc(Cl)cc2)C1	18
COc1ccccc1NC(=O)CSc1nc2n[nH]c(C)c2c(=N)n1-c1ccccc1Cl	11
CN(C(=O)COC(=O)c1ccccc1SCC(=O)NC1CCCCCCC1)C1CCS(=O)(=O)C1 (stereo not given)	0
Cc1cc(=O)oc2c1c(C(F)(F)F)nn2-c1ccccc1	15
O=C1CC(C(=O)Nc2cccc(F)c2)n2ncnc2N1 (stereo not given)	3
CC(=O)NCc1ccc(-c2nc3ccccc3s2)cc1	16
O=C(/C=C/c1ccco1)NC(=S)Nc1ccc(O)c(-c2nc3ccccc3s2)c1	6
O=C(CSc1nc2ccccc2c(=O)n1CCCN1CCOCC1)N1CCN(c2ccccc2)CC1	17
CCOc1cc(N2CCOCC2)c(OCC)cc1NC(=O)CSc1ncccn1	10
O=C(NCc1ccncc1)NC12CC3CC(CC(C3)C1)C2	18
Cc1nc2ccccc2c(=O)n1NC(=O)/C=C/c1ccccc1	14
O=C(Cn1cnc2c(oc3ccccc32)c1=O)N1CCCC1	3
